# Bioassay records (PubChem BioAssay)
# VDR inhibitor: Inhibitors of the vitamin D receptor (VDR): qHTS; Potency, µM, without a hit: max response, negative = inhibition, most hits filed as inhibitors; VDR-SRC2-3 peptide fluorescence polarization, 2 h; 0.93% of 400,000 active; active means well fitted inhibition curve with a large enough effect; inconclusive means small, poorly fitted or top-dose-only effect, or another doubt; inactive means no such curve, though single readings can be large or run the other way; further: series mostly up to about 120 µM
# Target sequence (P11473 whole entry, looked up): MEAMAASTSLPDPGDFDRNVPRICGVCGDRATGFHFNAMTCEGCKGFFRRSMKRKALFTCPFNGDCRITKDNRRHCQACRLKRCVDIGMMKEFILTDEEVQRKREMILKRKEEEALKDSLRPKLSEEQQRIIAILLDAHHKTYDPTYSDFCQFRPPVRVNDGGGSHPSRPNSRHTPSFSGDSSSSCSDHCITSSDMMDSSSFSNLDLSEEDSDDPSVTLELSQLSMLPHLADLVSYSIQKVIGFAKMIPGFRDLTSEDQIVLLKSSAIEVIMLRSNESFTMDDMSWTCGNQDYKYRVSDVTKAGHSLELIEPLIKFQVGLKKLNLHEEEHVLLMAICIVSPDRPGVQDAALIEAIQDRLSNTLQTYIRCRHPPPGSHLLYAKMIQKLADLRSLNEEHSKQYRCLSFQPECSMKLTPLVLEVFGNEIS
#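 VDR–SRC2-3 interaction, FP format. Cmpds 23 nl via pintool, brief spin, 2 h ambient incubation.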
# An asterisk follows results filed as active; u = inconclusive; & = joins results of further samples. On the % scale 0 is the no-effect control and ±100 the full control effect; potency means the concentration at half of the fitted maximal effect.
VDR inhibitor,structure
-13.2%,COc1cc(OC)c(OC)cc1/C=C1\CCC/C(=C\c2cc(OC)c(OC)cc2OC)C1=O
-1.9%,COc1ccc(C(CNC(=O)Cc2ccccc2)N2CCCCC2)cc1 (stereo not given)
-0.6%,CN(c1cnn(-c2ccccc2)c(=O)c1Cl)n1cccc1
-12.7%&6.7%,COc1ccc(-n2nc3c(N4CCC(C(=O)NC5CCCCC5)CC4)nnc(C)c3c2C)cc1
2.3%,CCc1ccc(-c2ccc3nnc(SCC(=O)NCC4CCCO4)n3n2)cc1 (stereo not given)
18.0%,O=C(CSC(=S)N1CCCCC1)Nc1ncc2c(n1)CC(c1ccco1)CC2=O (stereo not given)
4.3%,O=C(CCc1c[nH]c2ccccc12)N=Nc1c(O)[nH]c2ccccc12
-7.3%,CCOC(=O)c1cnc2ccc(OC)cc2c1NCCN1CCOCC1
13.4%,CCOC(=O)CSc1nnc(-c2ccccc2OC)o1
-21.7%,CCCn1c(CCC(=O)Nc2cc(OC)cc(OC)c2)nc2cccnc21

# Additional records.
VDR inhibitor,structure
-4.5%,CCN(CC)S(=O)(=O)c1ccc(C)c(NC(=O)CN2CCN(Cc3ccccc3)CC2)c1
8.3%,Cc1nc2[nH]onc2c2nccc(=O)c12
8.3%,CC(=NC1CCCC1)c1c(C)[nH]n(-c2nc3ccccc3s2)c1=O
7.2%,O=C(Nc1ccccc1N1CCCC1)c1ccc(Cl)c(S(=O)(=O)N2CCOCC2)c1
4.1%,COC(=O)c1ccccc1S(=O)(=O)N1CCC(NC(=O)C(Cc2cccc(OC)c2OC)NC(C)=O)CC1 (stereo not given)
-12.9%,Cc1ccnc(SCc2cn3c(C)cc(C)nc3n2)n1
-3.8%,Cc1cccc(S(=O)(=O)NCCC(=O)OCC(=O)Nc2ccc(C#N)cc2)c1
6.4%,COCCCNC(=O)C1CC(=O)N(CCc2ccccc2)C1 (stereo not given)
-0.3%,Cn1c(N)c(C(=O)COC(=O)c2cc(C3CC3)nc3ccccc23)c(=O)n(C)c1=O
-2.5%,COc1cc2c(cc1OC)/C(=C/C(=O)c1ccccc1F)NCC2

# Going on with the list.
VDR inhibitor,structure
0.7%,COc1ccc(OC(C)C(=O)Nc2cccc(OC)c2)cc1 (stereo not given)
2.3%,Cc1ccc(NC(=O)c2cc(-c3ccc4c(c3)OCO4)on2)cc1C
-6.1%,COC(=O)c1cc(NC(=O)c2ccc(C)cc2)c(=O)oc1C
-1.3%,Cc1ccc2nsnc2c1S(=O)(=O)NCc1ccc2c(c1)OCO2
7.2%,CC(C)n1c(N2CCN(C(=O)NCc3ccccc3)CC2)nc2ccccc21
-30.0%,O=C(N/N=C1/CCc2ccccc21)C1CC1
3.4%,O=c1cc(-c2ccc(F)cc2)nc(SCc2nc(-c3cccc(C(F)(F)F)c3)no2)[nH]1
-3.0%,Cc1cc(-c2ccc3c(c2)COc2c4ccccc4nn2-3)on1
-8.6%,Cc1ccc(-c2nc3ccsc3c(=O)o2)cc1
24.0%,CCCCC(C)n1[nH]c(=O)c2c(C)cc(C)nc21 (stereo not given)

# Fetched by structure from above:
VDR inhibitor,structure
0.7%,COc1ccc(OC(C)C(=O)Nc2cccc(OC)c2)cc1 (stereo not given)
-30.0%,O=C(N/N=C1/CCc2ccccc21)C1CC1
7.2%,CC(C)n1c(N2CCN(C(=O)NCc3ccccc3)CC2)nc2ccccc21
2.3%,Cc1ccc(NC(=O)c2cc(-c3ccc4c(c3)OCO4)on2)cc1C
-8.6%,Cc1ccc(-c2nc3ccsc3c(=O)o2)cc1

# The list goes on:
VDR inhibitor,structure
-8.9%,CCc1ccc(C(C)NC(=S)NCc2ccc(F)cc2)cc1 (stereo not given)
1.7%,O=C(COC(=O)c1cc(Cl)ccc1[N+](=O)[O-])NC1CC1
3.0%,O=C(CCCCl)OCc1cn(-c2ccc(Cl)cc2)nn1
-0.8%,COc1ccc(C(CNC(=O)c2ccc(Br)o2)N2CCN(C)CC2)cc1 (stereo not given)
-33.3%,CCn1cc(CN2CCN(CC(C)(C)C)C(CCO)C2)c2ccccc21 (stereo not given)
-8.9%,N#Cc1ccc(C23OCCN2CCn2nc4ccccc4c23)cc1 (stereo not given)
-7.2%,O=C(OC1CCOC1=O)C1CCN(S(=O)(=O)c2c(Cl)cccc2Cl)CC1 (stereo not given)
3.8%,CC(=O)c1ccc(N2CCC(C)CC2)c(F)c1
12.1%,Cc1nc2ccc(C(=O)c3ccccc3)cc2[nH]1
-3.0%,O=C(CC1NCCNC1=O)Nc1ccc2c(c1)OCCO2 (stereo not given)

# (cont.)
VDR inhibitor,structure
-13.9%,CCOC(=O)C1CCN(C(=O)COC(=O)/C=C/c2ccc([N+](=O)[O-])cc2)CC1
-0.2%,Cn1[nH]c(C(F)(F)F)cc1=O
-3.0%,N#Cc1ccc(-c2ccc(OCC(=O)NCC(=O)Nc3ccc(F)c(F)c3F)cc2)cc1
-10.8%,Cc1ccc(C(=O)C2CCN(CC(=O)Nc3ccccc3C)CC2)cc1
-6.7%,COc1ccc(CNC(=O)CSc2nnc3c(n2)[nH]c2ccc(C)cc23)cc1
-6.7%,Cc1cc(=O)oc2cc(OCC(=O)OCC(=O)NCCc3ccccc3)ccc12
-16.4%,CCn1c(SCC(=O)N2CCN(c3ccccc3)CC2)nnc1-c1c[nH]c2ccccc12
-19.5%,O=C(Cc1cccc(NC(=O)C2CCCN(C(=O)C3CC3)C2)c1)Nc1cccc(C(=O)N2CCCC2)c1 (stereo not given)
7.3%,CCN1C(=O)CC(c2ccco2)Sc2ccccc21 (stereo not given)
-11.0%,Cc1nc(SCC(=O)O)c(C#N)c(C)c1CC(=O)c1ccccc1

# The results go on.
VDR inhibitor,structure
-16.3%,COc1ccc(NC(=O)Nc2ccccn2)cc1OC
-13.9%,Cc1ccc(S(=O)(=O)N2CCN(C(=O)c3ccc(Br)o3)CC2)c(C)c1
-15.9%,CC(C)Oc1ccc(C2C(C(=O)c3ccco3)=C(O)C(=O)N2Cc2cccnc2)cc1 (stereo not given)
-0.2%,CNC(=O)c1ccc(-c2ccccc2)s1
-25.4%,Cn1c(SCC(=O)N2CCc3ccccc32)nc2cccnc21
0.8%,CCCOc1cc(C)c(Cl)cc1S(=O)(=O)N(CC)CC
13.3%,CSc1ccccc1NC(=O)c1ccccc1N(C)S(C)(=O)=O
-9.7%,COc1ccc(OCC(O)CNS(=O)(=O)c2ccc(NC(C)=O)cc2)cc1 (stereo not given)
0.4%,Cc1ccc(OCC(=O)N2CC3(C)CC2CC(C)(C)C3)cc1 (stereo not given)
-3.5%,COc1ccc(N2CCN(C3CC(=O)N(Cc4ccc(N5CCCC5=O)cc4)C3=O)CC2)cc1 (stereo not given)

# Additional compounds:
VDR inhibitor,structure
-8.1%,COc1ccc(Nc2oc(-c3ccccc3F)nc2C#N)cc1
6.9%&-11.0%,CCCCN(C)C(=O)Cn1cnc2sc(C)c(S(=O)(=O)N3CCN(c4ccccc4OC)CC3)c2c1=O
-8.5%,O/N=C/c1ccccc1Oc1ccccc1
-18.6%,Cc1[nH]c2ccccc2c1C(=O)/C=C\c1ccccc1Cl
-0.8%,CCN(CC)S(=O)(=O)c1ccc(C(=O)N2CCN(C(=O)c3ccco3)CC2)cc1
5.1%,COCc1nnc(NC(=O)CS(=O)(=O)Cc2ccccc2)s1
-19.2%,Cc1ccc(C(C(=O)NC2CCCC2)N(C(=O)CNC(=O)c2ccco2)c2ccccc2)o1 (stereo not given)
-2.7%,Cc1nnsc1-c1nnc(SCC(=O)c2ccccc2)n1C1CC1
10.5%,Cc1cccc(-n2nc([N+](=O)[O-])c(N3CCN(C(=O)c4ccco4)CC3)[n+]2[O-])c1
26.2%,O=C(NC1CCCC1)C(c1ccsc1)N(C(=O)Cc1cccs1)c1cccc(F)c1 (stereo not given)

# Remaining list, next part.
VDR inhibitor,structure
9.6%,COc1ccc(OC)c(NC(=O)/C=C/c2ccc(S(=O)(=O)N3CCOCC3)cc2)c1
-9.3%,COc1ccc(CNc2ncncc2-c2ccccc2OC)c(OC)c1
20.1%,CC(=O)Oc1ccc(C2OC(=O)c3ccccc3N2C(C)=O)cc1 (stereo not given)
-11.3%,CC(=O)/C(=N/Nc1ccccc1)Sc1nnc(C(O)c2ccccc2)n1-c1ccccc1 (stereo not given)
-17.4%,CC1CC(C)CN(C(=O)CCc2ccccc2)C1 (stereo not given)
-18.4%,CCc1nn2c(N3CCOCC3)cc(C)nc2c1-c1ccccc1
15.2%,C=CCNC(=S)NNC(=O)c1cc(C)nc2ccccc12
-8.5%,CCCCCc1cc(=O)oc2c(C(CCN(CC)CC)c3ccc(OC)cc3)c(OC)cc(OC)c12 (stereo not given)
-19.9%,Cc1cc(=O)n2c3ccccc3n(CC(O)CN3CCCCC3)c2c1C#N (stereo not given)
-9.1%,CCOC(=O)c1[nH]c2ccc(C)cc2c1NC(=O)CN1CCCCC1

# A draw from above in order of count of non-hydrogen atoms, ascending.
VDR inhibitor,structure
8.3%,Cc1nc2[nH]onc2c2nccc(=O)c12
-3.0%,O=C(CC1NCCNC1=O)Nc1ccc2c(c1)OCCO2 (stereo not given)
-6.7%,Cc1cc(=O)oc2cc(OCC(=O)OCC(=O)NCCc3ccccc3)ccc12
-3.0%,N#Cc1ccc(-c2ccc(OCC(=O)NCC(=O)Nc3ccc(F)c(F)c3F)cc2)cc1

# More structures.
VDR inhibitor,structure
2.5%,COc1cccc(OC)c1OCC(C)CNCC1CCCO1 (stereo not given)
-4.3%,CC(=O)Nc1ccc(S(=O)(=O)N(C)CC(=O)Nc2nc3ccccc3[nH]2)cc1
-0.4%,CCCCn1c(SCC(=O)NCc2ccco2)nc2c(sc3ccccc32)c1=O
u,Cc1ccc(Sc2ccc(/C=C3/C(=O)NN(c4ccccc4)C3=O)o2)cc1
-3.1%,O=C(NCCc1ccc(Cl)cc1)c1cc2ccccn2n1
5.9%,CCC(C)NC(=O)c1c(-c2ccccc2)c(-c2ccccc2)nn(C)c1=O (stereo not given)
-17.6%,CC1CCN(C(=O)c2cc(-c3ccccc3O)on2)CC1
-24.3%,c1ccc(CSc2ccc(-c3cccs3)nn2)cc1
-10.1%,CC(C)(C)NC(=O)C(c1ccc(O)cc1)N(C(=O)CCC(=O)Nc1ccccn1)c1ccc(F)cc1 (stereo not given)
-9.8%,CCCCOc1cc(=O)[nH]c(=O)[nH]1

# Additional results follow.
VDR inhibitor,structure
-7.5%,COc1ccc2[nH]c3c(c2c1)CCN1C(=O)C(CC(=O)NCC24CC5CC(CC(C5)C2)C4)C[C@H](C(=O)N(C(C)C)C(C)C)[C@@]31C (stereo not given in full)
-8.2%,CC1CCN(C(=O)CSc2nc3c(c(=O)n2C)SC(C)C3)CC1 (stereo not given)
-4.2%,O=C(NCc1ccco1)c1ccc(Cl)c(S(=O)(=O)N2CCOCC2)c1
10.4%,COc1ccc(C(c2c(NC(=O)c3ccco3)sc(C)c2C)N2CCOCC2)cc1 (stereo not given)
-11.5%,Cc1ccc2nc(/C(C#N)=C\c3ccc(N4CCOCC4)o3)[nH]c2c1
-9.4%,O=C(O)/C=C/c1ccc(S(=O)(=O)Nc2ccccc2C(=O)Nc2ccc(F)cc2)cc1
-4.2%,C#CCN1C(=O)C(O)(CC(=O)c2ccc(OC)c(OC)c2)c2cc(Br)ccc21 (stereo not given)
-5.9%,CCCCCCCCCCCCCCCCCCOCC(O)CO (stereo not given)
u,C=C(c1ccc(C(=O)O)cc1)c1cc2c(cc1C)C(C)(C)CCC2(C)C
0.9%,O=S(=O)(N1CCOCC1)N1CCOCC1

# Next section.
VDR inhibitor,structure
0.0%,Cc1cc(NC(=O)c2ccc(Cn3cc([N+](=O)[O-])cn3)o2)no1
7.3%,COc1ccc(S(=O)(=O)NCc2cccn2Cc2cccc(C)c2)cc1Cl
13.6%,COc1ccc(N2C(=O)C(F)(F)C2c2ccccc2F)cc1 (stereo not given)
-5.5%&0.0%,CCc1nonc1NC(=O)c1oc2cc(C)c(C)cc2c1C
10.6%,CN(C)CCCNC(=O)C(=O)NCC1CCCO1 (stereo not given)
16.2%,CC1(C)CC(=O)c2sc(N3CCCCC3)nc2C1
-18.7%,CC1=C(C(=O)Nc2ccccc2)C(c2ccccc2)n2nc(-c3ccco3)nc2N1 (stereo not given)
u,O=C(O)c1ccccc1Nc1cc(Cl)cc(Cl)c1
3.1%,Cc1cc(=O)[nH]c(SCC(=O)Nc2ccccc2C#N)c1C#N
20.9%,COc1ccc(CNC(=O)C2CCN(C(=O)N3CC(C)Oc4ccc(C)cc43)CC2)cc1 (stereo not given)

# Continued.
VDR inhibitor,structure
3.8%,CCOC(=O)c1ccc(NC(=O)CSc2nnc(NC(=O)c3ccc(S(=O)(=O)N4CCOCC4)cc3)s2)cc1
1.1%,COc1ccc(N(CC(=O)Nc2cc(C)on2)S(=O)(=O)c2ccc(Cl)cc2)cc1
-10.6%,COc1ccccc1CN1C(=O)C(=O)N(Cc2cccc(C)c2)C1=O
0.8%,CCOc1ccc(CCNC(=O)Cn2ncn3c(cc4ccccc43)c2=O)cc1OCC
-8.7%,CC(C)c1ccc2[nH]c(O)c(N=NC(=O)c3cccc(S(=O)(=O)Nc4cccc(Cl)c4)c3)c2c1
-2.7%,CC(CN1CCN(CC(C)C(=O)c2ccccc2)CC1)C(=O)c1ccccc1 (stereo not given)
2.5%,CCOC(=O)C1(O)CC(C)=NN1C(=O)c1cccc(Br)c1 (stereo not given)
-4.4%,Clc1ccccc1CSc1nnc(Cn2cnc3ccccc32)n1-c1ccccc1
0.2%,Cc1cc(=O)oc2cc(OCC(=O)NC3CCCCC3)c(Cl)cc12
-5.7%,COc1cc(/C=N/NC(=O)c2ccncc2)ccc1OC(=O)c1cccc(F)c1
3.9%,CC1CCN(c2ncnc3c2nnn3C)CC1
4.5%,CC(C)(C)n1ncc2c(=O)n(CC(=O)NCc3ccccc3Cl)cnc21

# An excerpt (hit frequency here may not be typical).
